# Screening results: PubChem BioAssay, several laboratories
# INS promoter inh: TRM-6 insulin promoter activity inhibition; TRM-6 cells (human fetal islet line), insulin promoter-eGFP reporter, imaging; reporter expression induced with tamoxifen; inhibition, % at 2 µM; 130,000 compounds, 0.9% hits; AID 1273;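 active = inhibition above the mean plus 3 SD, with well images judged a real hit on visual review, cut at about 60% in these data, passing the limit was not always enough; inconclusive = inhibition over the cutoff but images rejected on review; inactive = inhibition not above the cutoff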
# GALR2 agonist: agonists of human galanin receptor 2 (GALR2). 140,000 compounds, 0.48% hits. GALR2-expressing cells, agonist activation read-out. AID 803. O43603. activation, %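 (tested at 5 µM)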;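 active = above mean plus 3 SD of all compounds, about 5% in these data, not always enough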;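 note: 0% = vehicle buffer wells and 100% = reference agonist at full effect; tested in CHO reporter cells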
# Target sequence (O43603 whole entry, looked up): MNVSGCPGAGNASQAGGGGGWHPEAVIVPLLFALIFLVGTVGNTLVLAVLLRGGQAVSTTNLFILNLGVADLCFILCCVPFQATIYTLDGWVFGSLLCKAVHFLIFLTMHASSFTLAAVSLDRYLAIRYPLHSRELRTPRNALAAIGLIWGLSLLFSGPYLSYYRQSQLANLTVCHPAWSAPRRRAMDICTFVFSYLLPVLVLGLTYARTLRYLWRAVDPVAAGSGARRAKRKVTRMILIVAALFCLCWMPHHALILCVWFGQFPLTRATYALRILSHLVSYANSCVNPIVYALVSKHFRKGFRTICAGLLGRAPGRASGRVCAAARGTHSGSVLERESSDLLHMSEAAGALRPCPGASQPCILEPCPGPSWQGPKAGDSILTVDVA
# RGS16-Gao HTS: RGS16-Galphao interaction regulator (human). O15492+P09471. bead-based flow cytometry RGS16-Galphao binding, fluorescence; actives lie on both sides. binding response (% of control), % at 10 µM. 220,000 compounds, 0.38% hits. AID 1441;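 active = below 25% or above 175%, edge rows of some plates excepted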;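 note: Galphao activated by GDP with aluminum fluoride before binding; 100% = wells without compound and 0% = beads without RGS; some results beyond the cut were filed as inactive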
# Target sequence (O15492 whole entry, looked up): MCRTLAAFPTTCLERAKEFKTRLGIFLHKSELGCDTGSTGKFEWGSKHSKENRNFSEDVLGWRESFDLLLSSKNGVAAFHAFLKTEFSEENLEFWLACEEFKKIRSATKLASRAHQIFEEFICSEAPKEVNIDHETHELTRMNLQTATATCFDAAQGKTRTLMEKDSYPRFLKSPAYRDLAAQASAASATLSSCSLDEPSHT
# Target sequence (P09471 whole entry, looked up): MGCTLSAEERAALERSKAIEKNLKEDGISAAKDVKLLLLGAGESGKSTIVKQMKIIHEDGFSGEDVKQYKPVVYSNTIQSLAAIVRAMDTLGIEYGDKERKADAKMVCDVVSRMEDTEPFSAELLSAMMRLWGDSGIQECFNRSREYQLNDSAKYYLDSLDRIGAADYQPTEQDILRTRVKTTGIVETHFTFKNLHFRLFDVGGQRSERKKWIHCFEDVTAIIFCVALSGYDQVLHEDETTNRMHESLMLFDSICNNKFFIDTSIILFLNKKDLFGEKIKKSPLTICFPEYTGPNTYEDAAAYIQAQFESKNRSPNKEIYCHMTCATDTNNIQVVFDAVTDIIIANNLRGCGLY
# HSV replic up: HSV replication enhancement; HSV replication augmentation in cells, fold increase; maximum fold increase; 220,000 compounds, 0.005% hits; AID 1956;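 active = peak rise of 1.5-fold or more in the series; inconclusive = self-fluorescent or not available for retest; tested in PC3 cells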;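 note: first round at 10 µM; read as green reporter fluorescence; hits show the peak of a series up to 25 µM; 1 = signal of infected wells without compound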
# PKD1 kinase inh: blocks activity of human protein kinase D1. AID 797. 200,000 compounds, 0.056% hits. inhibition, %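 (about 10 µM by stock and volumes)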. PKD1 kinase fluorescence polarization assay;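 active = inhibition of 50% or more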;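 note: controls were vehicle for no effect and a reference inhibitor for full effect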
# INS promoter inh cell count: further read-out of INS promoter inh, marked with its call; normalized cell count, %; measured here: cell count, toxicity; reference of the scale not given here;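 cells exposed to compound for 48 h; stained nuclei by imaging scaled within each plate; lower means fewer cells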
# HSV replic up primary fold: second read-out of HSV replic up, no call of its own (marks repeat the call); fold increase; compound at 10 µM; measured here: primary screen fold increase 10 uM; tested in PC3 cells;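 GFP signal in the first replicate; 1 = infected wells without compound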
# Active calls of the source: *; i = inactive; ? = inconclusive; . = not tested or not shown.
# Preview, three compounds:
SMILES,INS promoter inh,INS promoter inh cell count,GALR2 agonist,RGS16-Gao HTS,HSV replic up,HSV replic up primary fold,PKD1 kinase inh
CCC1(C(=O)c2ccc(Cl)cc2)C2c3ccccc3OC(=O)C21C(=O)Nc1ccccc1 (centres undefined),.,.,-1.1,102,i,1.3,0
Cc1cc2c(N3CCCCC3C)ncnc2s1 (centres undefined),0,99,-1.0,111,i,0.7,12
Cc1cc(/C=N/NC(=O)c2cccs2)c(C)n1-c1cnccn1,.,.,.,97,i,1.2,9

# Main list, previewed entries included:
SMILES,INS promoter inh,INS promoter inh cell count,GALR2 agonist,RGS16-Gao HTS,HSV replic up,HSV replic up primary fold,PKD1 kinase inh
CCC1(C(=O)c2ccc(Cl)cc2)C2c3ccccc3OC(=O)C21C(=O)Nc1ccccc1 (centres undefined),.,.,-1.1,102,i,1.3,0
Cc1cc2c(N3CCCCC3C)ncnc2s1 (centres undefined),0,99,-1.0,111,i,0.7,12
Cc1cc(/C=N/NC(=O)c2cccs2)c(C)n1-c1cnccn1,.,.,.,97,i,1.2,9
O=C(Nc1ccc2c(c1)OCCO2)C1CCN(c2nnnn2-c2ccccc2)CC1,-6,137,-0.6,115,i,0.76,7
O=C(NN1C(=O)C2C3C=CC(C4CC34)C2C1=O)c1ccc(Cl)cc1 (centres undefined),0,79,-1.3,100,i,0.98,19
COc1cccc(NC(=O)C2(S(=O)(=O)c3ccc(Cl)cc3)CC2)c1,.,.,.,131,i,1,.
S=C(Nc1ccccc1Cl)N(CCCN1CCOCC1)Cc1ccccn1,20,85,.,101,i,0.98,-11
C/C(=C/c1ccccc1)C(=O)N1CC(C)OC(C)C1 (centres undefined),.,.,.,102,i,0.93,-4
O=C(Cn1cc(C(=S)N2CCOCC2)c2ccccc21)N1CCOCC1,-26,148,0.7,107,i,1,-7
CCOC(=O)C1=C(c2ccccc2)NC(=O)NC1c1cc(Br)c(O)c(OC)c1 (centres undefined),.,.,.,102,i,0.91,-3
COc1ccccc1C(=O)NCC(=O)N/N=C/c1ccc([N+](=O)[O-])cc1,-24,120,.,95,i,1,-5
C[C@@H]1Cc2c(O)c(O)cc(O)c2C(=O)O1,.,.,.,88,i,0.67,.
C=CCCCCc1nc2ccccc2c(=O)n1N,-25,122,0.4,109,.,.,3
COc1cc(NC(=O)c2cccs2)c(C(=O)OCC(=O)c2cc(C)n(-c3ccc(F)cc3)c2C)cc1OC,40,91,-0.8,112,i,0.95,-12
CC(=O)c1c(C)[n+]([O-])c2ccc3c(non3O)c12,.,.,.,96,i,1,-6
N#Cc1ccc(/C=C\c2nccc3c2[nH]c2ccccc23)cc1,.,.,.,101,i,1.1,-3
C=CCc1cc(Cl)ccc1OCCOCCNCCOC,-19,119,-3.2,79,i,0.95,-5
Cn1c(=O)c2c(nc(N3CCOCC3)n2CCCNC2=NCCC2)n(C)c1=O,.,.,-1.6,105,i,0.93,0
COc1ccc(NC(C)=O)cc1NC(=O)CCn1c(=O)sc2ccccc21,-69,84,-2.9,107,i,0.86,-9
CCOc1ccc(NC(=O)[C@@H](NC(=O)OCc2ccccc2)[C@@H](C)CC)cc1,.,.,3.4,101,i,0.94,-7
COCCn1c(C(C)C)nc2oc3ccccc3c(=O)c2c1=O,.,.,-3.6,97,i,1,-11
Cc1ccc2nc(NC(=O)C3CCN(S(=O)(=O)c4cccc5nsnc45)CC3)sc2c1,.,.,-0.2,109,i,0.89,-1
N#Cc1nc(Cc2ccccc2)oc1NCCc1ccccc1,-131,101,-1.2,101,i,1,-5
CCOC(=O)c1sc2nc(CSc3ccccc3)nc(NCCN(C)C)c2c1C,.,.,.,99,i,0.73,-2
CN1CCN(C(=O)CSc2nc(-c3ccncc3)ccc2C#N)CC1,4,139,-0.8,101,i,0.89,-9

# Part of the list above, reformatted:
Molecule	INS promoter inh	INS promoter inh cell count	GALR2 agonist	RGS16-Gao HTS	HSV replic up	HSV replic up primary fold	PKD1 kinase inh
COc1ccc(NC(C)=O)cc1NC(=O)CCn1c(=O)sc2ccccc21	-69	84	-2.9	107	i	0.86	-9
CCOC(=O)c1sc2nc(CSc3ccccc3)nc(NCCN(C)C)c2c1C	.	.	.	99	i	0.73	-2
C[C@@H]1Cc2c(O)c(O)cc(O)c2C(=O)O1	.	.	.	88	i	0.67	.
S=C(Nc1ccccc1Cl)N(CCCN1CCOCC1)Cc1ccccn1	20	85	.	101	i	0.98	-11

# The results go on:
SMILES,INS promoter inh,INS promoter inh cell count,GALR2 agonist,RGS16-Gao HTS,HSV replic up,HSV replic up primary fold,PKD1 kinase inh
O=C(Cc1c(O)c2ccccc2[nH]c1=O)NC1CCCCCC1,26,119,-2.2,119,i,0.94,7
Cc1ccc(S(=O)(=O)NCCC(=O)Nc2cccc(Cl)c2)cc1,-57,106,-0.8,94,i,0.92,12
CN(c1ccccc1)S(=O)(=O)c1ccc(C(=O)Nc2nnc(-c3ccc(F)cc3)o2)cc1,.,.,-1.1,111,i,0.95,3
Cc1ccc(C=Nc2ccccc2C(N)=O)cc1,10,88,-0.2,98,i,0.8,2
CCOc1nonc1C(=N)/C(C(C)=O)=C(\C)O,.,.,-0.4,104,i,0.89,-9
COc1ccc(-n2cc(-c3ccccc3)c3c(N4CCOCC4)ncnc32)cc1,21,137,.,106,i,0.82,4
CC1CCCCN1C(=O)c1cc(-c2ccc(Cl)c(Cl)c2)on1 (centres undefined),.,.,-1.2,104,.,.,7
Cc1c(-c2ccnc3cc(C(=O)O)nn23)cnn1C,-38,108,.,104,i,1.1,2
CCN(CC)c1ccc(/C=C(\C#N)C(N)=O)cc1,30,162,.,102,i,1,-12
COc1cc(C2C(C#N)=C(N)OC3=C2C(=O)CC(C)(C)C3)c([N+](=O)[O-])cc1OC (centres undefined),26,152,-0.7,101,.,.,4
c1ccc(-n2c(Cc3cn4ccsc4n3)nnc2N2CCOCC2)cc1,.,.,0.4,94,i,0.87,-5
O=C(Nc1cc(N2CCOCC2)ncn1)NC1(C(F)(F)F)Oc2ccccc2O1,7,100,-1.0,99,i,0.8,-2
COc1ccc(OC)c2[nH]c(=O)c(CCNC(=O)c3ccc(S(=O)(=O)N(C)C)cc3)cc12,91*,87*,-0.9,107,.,.,-4
O=C(Oc1ccccc1C(=O)N1CCOCC1)c1ccc(Br)cc1,-18,153,-1.5,95,i,0.55,-5
CC1(C)Cc2ccccc2-c2nnc(-c3ccccc3)n21,-6,91,-1.1,89,i,1,1
CCCCc1ccc(C2C(C#N)=C(N)SC(N)=C2C#N)s1,-275,114,-1.6,99,i,1.3,3
CCSc1nnc(NC(=O)CSc2nc3c(c(=O)n2-c2ccccc2)SCC3)s1,13,174,-3.8,106,i,0.91,-8
Cc1ccc(N2CCN(C(=O)CNS(=O)(=O)c3ccc(Br)s3)CC2C)cc1 (centres undefined),27,108,-0.8,106,.,.,-2
O=c1c2cnn(-c3ccccc3)c2nc(-c2ccco2)n1-c1ccccc1,7,198,0.3,99,i,0.82,-8
Brc1ccc(-c2cn3nc4c(nc3n2)CCCC4)cc1,0,106,3.3,97,?,.,-3
CN(CC1COc2ccccc2O1)C(=S)Nc1ccccc1F (centres undefined),.,.,0.8,81,i,1,-6
C=COCCn1c(-c2nonc2N)nc2ccccc21,-17,113,-2.6,59,i,0.92,8
O=C(COc1ncnc2sccc12)N1CCN(c2ccccc2)CC1,.,.,.,100,i,1.2,.
C/C(=N\O)C(=O)NCc1ccncc1,10,140,-1.7,107,i,0.97,3
N#Cc1nc(COc2ccc(Cl)cc2)oc1N1CCCC1,.,.,-0.5,97,i,0.82,-6

# (list continues)
SMILES,INS promoter inh,INS promoter inh cell count,GALR2 agonist,RGS16-Gao HTS,HSV replic up,HSV replic up primary fold,PKD1 kinase inh
Cc1cccc(NC(=O)/C(=C\c2ccco2)NC(=O)c2ccccc2)c1,-42,114,-2.6,111,i,0.9,2
Cc1ccccc1COc1ccc(/C=C(\C#N)C(N)=O)cc1,-5,102,.,104,i,1,-3
COc1ccccc1CN1C(=S)SC(C)(C)C1NO (centres undefined),-43,108,-1.1,102,i,1,-21
COc1ccccc1/C=C/C1(C(=O)NC2CCCC2)CC(=O)N1c1ccc(F)cc1 (centres undefined),-14,93,0.2,108,i,0.65,-3
CN1C(=O)CSC1=NCC12CC3CC(CC(C3)C1)C2,7,80,-2.0,108,i,0.98,-2
CCCn1c(SCC(=O)N2CCCCC2)nnc1-c1ccco1,.,.,-2.8,97,i,0.93,-5
CN(CCCNC(=O)c1cc2c(Cl)nc3ccccc3c2s1)Cc1ccccc1,-94,78,.,105,i,0.68,5
Nc1nc(Cl)cc(N2CCCC2)n1,.,.,.,99,i,0.94,-3
COCCCNC(=O)c1ccccc1Sc1ccc(NC(C)=O)nc1,-25,125,.,104,i,0.98,-1
Clc1ccc(-c2nc(N3CCCCC3)nc3ccccc23)cc1,-5,97,0.9,101,i,0.86,-1
Cc1cc(/C=C2/NC(=O)N(Cc3ccccc3F)C2=O)c(C)n1-c1ccccn1,17,78,1.1,107,i,0.93,-7
CCC(=O)NC(c1ccc(OC)cc1)c1cc(Cl)c2cccnc2c1O (centres undefined),.,.,.,99,i,0.82,1
Cn1c(Sc2ccc(Br)cc2)c(C=O)c2ccccc21,48,136,-3.0,99,i,0.87,-11
CCOC(=O)c1ccc(S(=O)(=O)N(CCO)Cc2cc3cc(OC)c(OC)cc3[nH]c2=O)cc1,.,.,.,100,i,0.89,.
CC(=O)N(C)C1(c2nnnn2CCOC(=O)Nc2ccc(Cl)cc2)CCCCC1,-8,106,2.1,102,i,1,3
CCC(C(=O)Nc1ncccn1)(C(F)(F)F)C(F)(F)F,68,68,-2.2,98,i,0.86,-2
O=C1C=C(NCc2ccccc2)CCC1,.,.,0.0,109,i,0.94,-4
CC1CC(C)CN(C(=O)CSCC(=O)O)C1 (centres undefined),.,.,.,100,i,1.1,.
O=c1[nH]c2cc3c(cc2cc1CN(Cc1ccccc1)Cc1nnnn1Cc1ccco1)OCCO3,.,.,-0.3,90,i,1.1,-8
O=C(COC(=O)/C=C/c1ccc(F)cc1)Nc1ccccc1-c1ccccc1,13,110,-2.1,100,i,0.92,4
COc1ccc(OC)c(S(=O)(=O)N(C)CC(=O)N2CCN(c3ccc(F)cc3)CC2)c1,8,158,-0.3,102,i,1,-6
O=c1c2ccccc2nnn1CSc1nnc2sc3ccccc3n12,50,122,-1.9,109,.,.,-2
COC(=O)c1ccc(CSc2nc(-c3ccccc3)cs2)o1,31,102,-0.3,106,i,0.99,-5
O=S1(=O)CCC(N2CCOCC2)C1 (centres undefined),23,164,-0.4,101,i,0.76,-1
Cc1ccccc1CS(=O)(=O)Cc1ccc(C(=O)NCc2ccccn2)o1,62,63,-0.7,82,i,1,-6

# Next records:
SMILES,INS promoter inh,INS promoter inh cell count,GALR2 agonist,RGS16-Gao HTS,HSV replic up,HSV replic up primary fold,PKD1 kinase inh
CCN(C(=O)CSc1nc2nc(C)cc(C)n2n1)c1cccc(C)c1,.,.,1.8,108,i,0.98,-9
CCn1c(SCC(=O)N2CCCc3ccccc32)nnc1-c1ccco1,-9,141,-1.5,97,i,0.98,-1
Cc1nnc(SCc2ccc(F)cc2)s1,46,94,-1.8,103,i,0.89,-8
CCn1c(=O)c(C(=O)NCc2ccc(OC)c(OC)c2)c(O)c2ccccc21,20,108,0.5,96,i,0.94,-7
COc1ccc(CCNC(=O)CN2CCN(Cc3ccccc3F)C2=O)cc1OC,.,.,.,96,i,0.89,.
CC(=O)c1cccc(NC(=O)NNC(=O)c2ccc(Cl)cc2Cl)c1,.,.,.,108,i,0.87,8
CCC(c1ccccc1)c1nc(-c2ccccn2)no1 (centres undefined),-13,85,-0.3,101,i,0.93,-9
O=C(NCC(F)(F)F)Nc1nnc(C(F)(F)F)s1,-7,126,-4.7,92,i,0.97,-5
Cc1ccc(-n2cccc2/C=C2\C(=N)N3N=C(c4ccco4)SC3=NC2=O)cc1,-8,57,.,51,i,1.1,-5
O=S(=O)(NCCCCCNS(=O)(=O)c1ccccc1)c1ccccc1,50,129,-2.7,114,i,1.1,-4
CCc1ccc(/C=C/c2c[nH]c3ccccc23)[n+](CC)c1,-8,139,-0.7,105,.,.,-6
COc1ccccc1-c1ccc(=O)n(CC(=O)NCC2CCCO2)n1 (centres undefined),.,.,.,60,i,1,0
Cc1ccc(C(=O)NNC(=O)CCC(=O)Nc2cc(C)on2)cc1,.,.,-0.2,110,i,1,6
O=C(c1ccc(Cl)cc1Cl)C1(n2cncn2)Oc2ccccc2C1O (centres undefined),-13,130,-2.3,107,i,0.93,-7
Cc1ccc(S(=O)(=O)N(CCC(=O)O)Cc2ccc(Cl)cc2)cc1,-19,120,-0.3,99,i,0.85,-1
Cc1cccc(C)c1NC(=S)/C(=C(\[O-])c1cccs1)[n+]1ccccc1,0,160,-0.8,102,i,0.99,-2
